NS1 inh: blocks influenza NS1 protein function. S. cerevisiae slowed by influenza A NS1, growth recovery by OD600. Potency, µM (series often up to 46.1 µM), for inactives: top-dose activity, positive = more growth. actives 0.4% (n = 270,000); also: actives are rising curves; nearly all actives have a fitted effect of over 50% in size
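S. cerevisiae expressing influenza A NS1, grown in glucose, washed, then diluted 1:100 into pH 6.0 -URA galactose medium with 23 nl compound. Growth recovery read as OD600; NS1-free strain serves as control.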
SARS PLP yeast: inhibitors of SARS-CoV papain-like protease in yeast; Potency, µM (titrated, usually from 32.9 µM), for inactives: top-dose activity, positive = growth rescue; actives 0.19% (n = 330,000); AID 485353; S. cerevisiae expressing SARS-CoV PLpro, growth rescue; control for the full effect not named in the record; also: 0% is about no effect; nearly all actives have a fitted effect of over 55% in size; growth read by luminescence after 48 h
Cruzain Triton: inhibitors of Trypanosoma cruzi cruzain with detergent | P25779 | purified cruzain, Z-FR-AMC fluorescence, 0.01% Triton | Potency, µM, inactives show max response, negative = inhibition, actives largely listed as inhibitors | actives 0.43% (n = 200,000); active = well fitted curve in the direction sought with a large enough effect; inconclusive = small, poorly fitted or top-dose-only effect, or another doubt; inactive = no such curve, though single readings can be large; an effect the other way counts as inactive or inconclusive;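 also: plate controls were neutral wells for no effect and buffer without enzyme for full effect; nearly all actives have a fitted effect of over 40% in size; top concentration of the series not given in the record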
Target sequence (P25779 123-467 limits assumed): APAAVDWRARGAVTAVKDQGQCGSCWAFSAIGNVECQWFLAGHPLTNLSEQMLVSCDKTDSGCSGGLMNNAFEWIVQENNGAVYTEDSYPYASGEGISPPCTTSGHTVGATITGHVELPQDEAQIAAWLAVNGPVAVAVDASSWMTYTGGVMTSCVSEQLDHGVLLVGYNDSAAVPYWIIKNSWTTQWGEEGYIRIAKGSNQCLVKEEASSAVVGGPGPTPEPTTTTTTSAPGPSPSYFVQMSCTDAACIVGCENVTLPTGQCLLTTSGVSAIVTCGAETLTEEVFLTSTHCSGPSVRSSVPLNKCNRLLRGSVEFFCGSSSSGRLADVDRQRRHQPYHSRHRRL
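Purified cruzain (1.5 nM final) was preincubated with compounds for 15 min at room temperature in 100 mM sodium acetate pH 5.5, 5 mM DTT, 0.01% Triton X-100. Reaction started with 2 uM Z-FR-AMC; AMC fluorescence change over 60 s gave activity.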
StopGo reporter: FMDV 2A StopGo reporter, luciferase signal; human cells with a luciferase reporter of 2A StopGo recoding; control for the full effect not named in the record; Potency, µM (titrated, usually from 57.9 µM), for the others: at the top dose signal change, negative = less light; actives 1.2% (n = 410,000); AID 1159524; active = well fitted falling curve with a large enough effect; inconclusive = small, poorly fitted or top-dose-only effect; inactive = no such curve, though single readings can be large or run the other way; tested in HEK293T cells; also: % is scaled to controls: 0 for no effect and ±100 for the full control effect; nearly all actives have a fitted effect of over 45% in size; luciferase light after 4 h
RE007 growth inh: less growth of the S. pombe RE007 Vpr strain; S. pombe RE007 Vpr strain, BacTiter-Glo ATP luminescence, 24 h; control for the full effect not named in the record; Potency, µM (top dose mostly 92.2 µM), inactives show at the top dose activity change, negative = less growth; actives 0.21% (n = 360,000); active = well fitted falling curve with a large enough effect; inconclusive = small, poorly fitted or top-dose-only effect; inactive = no such curve, though single readings can be large or run the other way;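 also: % is scaled to controls: 0 for no effect and ±100 for the full control effect; nearly all actives have a fitted effect of over 50% in size; the assay follows cell death caused by Vpr and the record does not say whether a fall means rescue or toxicity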
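Fission yeast strain RE007, carrying one chromosomally integrated HIV-1 vpr copy, was seeded at OD 0.01 in PMG+AL medium with 23 nL pinned compound. After 24 h at 30 °C and 99% humidity, viability was read by BacTiter-Glo luminescence.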
Marburg entry inh: blocks Marburg virus binding to or entry into cells; actives 1.8% (n = 300,000); Marburg virus pseudotyped entry inhibition, cell reporter; control for the full effect not named in the record; about a third of the inactives were read at about 46 µM; Potency, µM (series often up to 37.8 µM), for inactives: top-dose activity change, negative = inhibition, most hits filed as inhibitors; active = well fitted inhibition curve with a large enough effect; inconclusive = small, poorly fitted or top-dose-only effect, or effect the other way; inactive = flat fitted curve, though single readings scatter; tested in HEK293 cells; about a fifth of its hits are not listed in these tables; also: % is scaled to controls: 0 for no effect and ±100 for the full control effect; luciferase read-out
Cruzain noTriton: inhibitors of Trypanosoma cruzi cruzain without detergent; P25779; purified cruzain, Z-FR-AMC fluorescence, no detergent; Potency, µM, without a hit: max response, negative = inhibition, usual class: inhibitors; actives 2.3% (n = 200,000); active = well fitted curve in the direction sought with a large enough effect; inconclusive = small, poorly fitted or top-dose-only effect, or another doubt; inactive = no such curve, though single readings can be large; an effect the other way counts as inactive or inconclusive;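 also: plate controls were enzyme without inhibitor for no effect and buffer without enzyme for full effect; nearly all actives have a fitted effect of over 40% in size; top concentration of the series not given in the record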
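Detergent-free condition (0.00005% Triton X-100) in acetate buffer pH 5.5 with DTT. 1.5 nM enzyme and compound were pre-mixed 15 min, then 2 uM Z-FR-AMC substrate added; reaction progress from fluorescence change between first and third reads (60 s).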
LASV entry inh: inhibitors of Lassa virus binding or cell entry | Lassa virus pseudotype entry inhibition, cell reporter; control for the full effect not named in the record | Potency, µM (doses to about 37.9 µM), for inactives: at the top dose activity change, negative = inhibition, most hits filed as inhibitors | actives 1.2% (n = 300,000) | AID 540256; active means well fitted inhibition curve with a large enough effect; inconclusive means small, poorly fitted or top-dose-only effect, or effect the other way; inactive means flat fitted curve, though single readings scatter; tested in HEK293 cells; also: % is scaled to controls: 0 for no effect and ±100 for the full control effect; nearly all actives have a fitted effect of over 50% in size; luciferase read-out
* = called active by the depositor; u = inconclusive; x = no result given; & = joins results of further samples; [ ] = remark or other dose. Unless noted, calls follow the shape of the dose curve; as a rule, active means well fitted rising curve with a large enough effect; inconclusive means small, poorly fitted or top-dose-only effect; inactive means no such curve, though single readings can be large or run the other way. Potency is read from the fitted curve at half-maximal effect.

SMILES	NS1 inh	SARS PLP yeast	Cruzain Triton	StopGo reporter	RE007 growth inh	Marburg entry inh	Cruzain noTriton	LASV entry inh
CCN(CC)S(=O)(=O)c1cc(C(=O)Nc2cccnc2Cl)ccc1Cl	-8%	2%	x	u	2%	-23%[46.1 µM]	x	-11%
C[C@]12Cc3cn4c(nc3C=C1CCC1C2CC[C@@]2(C)[C@H]1CC[C@@]2(O)C#N)nc1ccccc14 (stereo partly drawn)	40µM*	x	4.1%	x	x	10µM*	-9%	5.2µM*
CCn1c(CN2CCC(C)CC2)nc2cc(NC(=O)c3ccc([N+](=O)[O-])cc3)ccc21	x	x	-12%	-12%	x	-6%[46.1 µM]	-7%	0%[46.1 µM]
Cc1nc(COC(=O)c2c(C)nn(-c3ccccc3)c2C)cs1	-18%	3%	3.1%	11%	-8%	12%	-8%	-8%
CCCCOc1ccc(C(=O)NCC(=O)NC2CCN(Cc3ccccc3)CC2)cc1	8%	14%	x	-24%	-6%	u	x	-20%
S=c1[nH]nc(C2CC2)n1Cc1ccccc1	x	-3%	x	-1%	289%	26%[46.1 µM]	x	17%[46.1 µM]
CCSc1nnc(NC(=O)CN2C(=O)C3CC=CCC3C2=O)s1 (stereo not drawn)	-2%	-2%	x	2%	9%	x	x	x
COC(=O)Nc1ccc2c(c1)N(C(=O)CCCl)c1ccccc1S2	-76%	-9%	x	-28%	16%	u	x	u
COc1ccc(NC(=O)CSc2nc(C)cs2)c([N+](=O)[O-])c1	x	-3%	x	19%	-16%	12%	x	12%
Cc1ccc2oc(=O)c3cc(C(=O)NCCN4CCN(C)CC4)sc3c2c1	-18%	4%	-12%	-17%	11%	x	-15%	x
COc1ccc(C(=O)Nc2cc3c(cc2N2CCCCC2)n(C)c(=O)n3C)cc1OC	2%	4%	x	-20%	19%	x	x	x
CC(C)[C@H](NC(=O)c1cc2cc(Cl)ccc2n1C)C(=O)N1CCC(C(=O)O)CC1	7%	-2%	x	-11%	4%	11%[46.1 µM]	x	-3%[46.1 µM]
CCCCN(CC)CCCNC(=S)Nc1ccc2nc3n(c(=O)c2c1)CCCCC3	3%	12%	-2.4%	-9%	10%	u	5%	1%
CCOc1ccc(C(=O)Nc2sc3c(c2C(=O)OC)CC(C)(C)NC3(C)C)cc1	-2%	-1%	x	-17%	-6%	x	x	x
CCN(CC)Cc1cc2[nH]c3c4ccc(Cl)cc4ncc3c2cc1OC	6%	0%	x	-18%	-11%	x	x	x
COc1cc(NC(=O)/C=C/c2ccccc2[N+](=O)[O-])cc(OC)c1	-2%	3%	-12%	28%	-8%	15%	-2%	14%
COc1ccc(/C=C(\NC(=O)c2ccccc2)C(=O)N/N=C/c2cccnc2)cc1	-9%	0%	x	-8%	10%	x	x	x
CCN(c1ccccc1)S(=O)(=O)c1ccc(N2CCN(c3ccc(O)cc3)CC2)nc1	x	-9%	x	u	14%	u	x	7.9µM*
Cc1ccc(C)c(NC(=S)N2CCN(S(=O)(=O)c3ccccc3)CC2)c1	-4%	7%	x	-10%	9%	-10%	x	4%
CC1CCN(c2nc(-c3ccc(F)cc3)cc(C(F)(F)F)n2)CC1	-12%	-6%	-1.0%	-4%	-16%	-25%	-2%	-12%
COCCNc1nc(-c2cc(C)c(C)cc2C)cs1	7%	-1%	x	17%	-18%	0%[46.1 µM]	x	x
CCOC(=O)c1ccc(-n2c(CCC(=O)O)ccc2-c2ccccc2)cc1	4%	0%	-12%	-14%&-18%	1%	x	u	-40%[46.1 µM]
CCN(CC)C(=O)Cn1c(=O)c2ccccc2n2c(=S)sc(-c3cccc(C)c3)c12	1%	-14%	-3.5%	-15%	x	-5%	8%	-5%
CCCOC1CCCN(Cc2cn(C)nc2-c2ccccc2F)C1 (stereo not drawn)	3%	0%	x	-19%	0%	u	x	13%[46.1 µM]
CCN1C(=O)c2cccc3c(NS(=O)(=O)c4ccc(NC(C)=O)cc4)ccc1c23	-10%	11%	-6.4%	u	4%	u	-11%	-13%
CCOc1ccc2nc(SCc3ccccc3C#N)sc2c1	-22%	-16%	-2.8%	55%[activator]	18%	u	2%	u
CCN(CC)c1ccc(NC(=O)Cn2nc3c(cc2=O)CCCC3)c(C)c1	x	x	-0.6%	-11%	x	x	-4%	4%[46.1 µM]
COc1ccc(C(C)=O)cc1CSCC(=O)O	x	1%	x	10%	3%	-2%[46.1 µM]	x	-8%
COc1ccc(C(=O)N/N=C(/C)c2cccc(NC(=O)C(F)(F)F)c2)cc1	-10%	7%	-1.7%	8%	3%	1%	7%	-5%
CCc1ccccc1N(C(=O)CCC(=O)Nc1cc(C)on1)C(C(=O)NC1CCCC1)c1ccco1 (stereo not drawn)	-15%	-3%	2.0%	-11%	10%	u	29%	-15%
COc1cccc(NC(=O)c2ccc(CN3CCOCC3)cc2)c1	0%	7%	-0.9%	-5%	-10%	u	0%	-27%
COc1ccc(C2/C=C\CN(C(=O)C3CCCCC3)CC(=O)N2Cc2ccc(F)cc2)cc1 (stereo not drawn)	7%	1%	x	23%	2%	x	x	x
CCC1(CC)C(=O)N(c2ccccc2)C(=N)N(c2ccccc2)C1=O	x	x	x	-2%	-2%	17%	x	4%
CO/N=C/NC(=O)NOCc1c(Cl)cccc1Cl	-8%	x	1.8%	0%	-5%	-5%	-11%	19%
Cn1c(=O)c2c(nc(SCC(=O)NC34CC5CC(CC(C5)C3)C4)n2C)n(C)c1=O	2%	-1%	-4.5%	-6%	-2%	2%	-3%	u
COc1cccc(NC(=S)NCCc2ccccn2)c1	7%	-2%	x	67%	-8%	x	x	x
O=C(NC1CCN(C(=S)NCc2ccco2)CC1)NC12CC3CC(CC(C3)C1)C2	8%	-4%	3.6%	-17%	7%	5%	2%	-12%
O=C(NCc1ccccc1C(F)(F)F)C1CC(c2ccccc2C(F)(F)F)=NO1 (stereo not drawn)	3%	-3%	x	26%	-13%	x	x	x
NC(=O)c1c(NC(=O)c2ccccc2)sc2c1CCc1ccccc1-2	-2%	-5%	-2.4%	58%[activator]	-9%	u	-7%	-12%
CCN(CC)CCCNC(=O)CCn1nc(-c2ccccc2)ccc1=O	5%	1%	x	-18%	-2%	x	x	x
CCc1ccccc1NC(=S)N1CCC(C(=O)c2ccc(F)cc2)CC1	17%	-4%	0.8%	x	14%	2%	3%	0%
CC(NC(=O)c1cc(-c2ccccc2)on1)c1ccccc1 (stereo not drawn)	-18%	3%	3.9%	-5%	-16%	2%	u	-7%
CCCCSc1nc(-c2cccc(OC)c2)nc2c1Cc1c(CO)cnc(C)c1O2	x	x	-2.3%	-13%	x	x	8%	u
COc1cccc(NC(=O)CN(C)C(=O)C2CC3C=CC2C3)c1 (stereo not drawn)	x	-3%	x	-18%	-13%	-24%[46.1 µM]	x	-7%[46.1 µM]
CCOC(=O)COc1cccc2c(=O)n(CC(=O)N3CCc4ccccc43)ccc12	2%	-5%	-0.5%	0%	-5%	1%	-3%	x
Cc1ccc(NC(=Nc2ccc(Br)cc2)N2CCOCC2)cc1C	-6%	-8%	x	-2%	-29%	u	x	u
Cc1ncc([N+](=O)[O-])n1CC(=O)Nc1ccc(Cl)cc1	0%	1%	x	-24%	26%	1%[46.1 µM]	x	-23%[46.1 µM]
Cc1cccc(S(=O)(=O)Nc2ccc(-c3ccc4nncn4n3)cc2)c1	x	-3%	x	51%[activator]	-27%	3%	x	0%
CCC1COCCS(=O)(=O)N1Cc1ccccc1 (stereo not drawn)	-1%	-3%	x	-13%	0%	x	x	x
CN(C)CCCN(C(=O)c1ccc2c(c1)CCCC2)c1nc2cc3c(cc2s1)OCO3	3%	-5%	x	-21%	1%	11µM*	x	u
O=C(Nc1ccc(F)cc1)c1ccc(Br)c(S(=O)(=O)N2CCOCC2)c1	-6%	-1%	x	u	-8%	u	x	u
COc1ccc(/C=C2\SC(=O)N=C2N)cc1	u	0%	0.3%	10%	-6%	-34%	32µM*	1%
COc1ccc(N(CC(=O)Nc2cc(Cl)ccc2OC)S(=O)(=O)c2c(C)noc2C)cc1	-24%	u	1.6%	-26%	-9%	u	-6%	-19%
Cc1ccccc1CNC(=O)CCC(=O)N1CCOc2ccc(Cl)cc21	-4%	0%	x	-9%	-3%	x	x	x
CCCCCC(=O)Nc1nnc(CCc2ccccc2)s1	-12%	0%	x	9%	7%	3%[46.1 µM]	x	-1%[46.1 µM]
Cc1c(C(=O)N(CC(C)C)c2c(N)n(Cc3ccccc3)c(=O)[nH]c2=O)sc2nc3n(c(=O)c12)CCC3	x	2%	x	-24%	-10%	5%	x	-1%
CCOC(=O)c1ccc(NC(=O)CCNS(=O)(=O)c2cc(Br)cnc2N)cc1	-1%	4%	x	33%	1%	23%[46.1 µM]	x	-8%[46.1 µM]
CNc1ccccc1C(C)(C)c1cc(-c2cccc([N+](=O)[O-])c2)no1	x	-2%	x	-8%	0%	4.5µM*	x	u
O=C(NCC1CCCN(Cc2cccc(C(F)(F)F)c2)C1)c1ccc(F)cc1 (stereo not drawn)	1%	1%	x	-28%	-11%	x	x	x
O=C(COC(=O)c1cnccn1)NCc1ccc(Cl)cc1	13%	1%	x	-9%	0%	5%[46.1 µM]	x	24%[46.1 µM]

(further entries)
SMILES	NS1 inh	SARS PLP yeast	Cruzain Triton	StopGo reporter	RE007 growth inh	Marburg entry inh	Cruzain noTriton	LASV entry inh
O=C(Cn1cccn1)N1CCCC(N2CCN(c3cccc(C(F)(F)F)c3)CC2)C1 (stereo not drawn)	-5%	-9%	x	1%	6%	-17%	x	4%
CN1C(=S)SC(N2OC3C(=O)N(c4ccccc4)C(=O)C3C2c2ccccc2)C1(C)C (stereo not drawn)	21%	-1%	1.2%	x	x	-1%	6%	x
CCOC(=O)C1=C(C)NC(=O)NC1c1cccc(O)c1 (stereo not drawn)	1%	x	0.9%	-16%	-6%	-1%	-1%	-5%
CCOC(=O)CCNC(=O)N1CCC(CCC(=O)NCc2ccc(F)cc2)CC1	12%	1%	x	10%	6%	-28%	x	u
CCOC(=O)Nc1ccc(S(=O)(=O)Nc2nccc(C)n2)cc1	u	0%	-0.9%	23%	-1%[3.69 µM]	7%	-14%	-7%

Assay outcomes from PubChem BioAssay.
